GLA inh pH 4.5: blocks human alpha-galactosidase A at pH 4.5. purified enzyme, 4-MU-alpha-Gal fluorescence, pH 4.5. activity change, negative = inhibition, % at 105 µM. 230,000 tested, under 10 active. AID 1467; inconclusive = small, poorly fitted or top-dose-only inhibition, or a rising curve; inactive = flat fitted curve, though single readings scatter; no compound was filed as active;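 note: 0% = full activity with enzyme and -100% = basal without enzyme; dose as in the result columns while the protocol names 77 µM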
Target sequence (P06280 whole entry, looked up): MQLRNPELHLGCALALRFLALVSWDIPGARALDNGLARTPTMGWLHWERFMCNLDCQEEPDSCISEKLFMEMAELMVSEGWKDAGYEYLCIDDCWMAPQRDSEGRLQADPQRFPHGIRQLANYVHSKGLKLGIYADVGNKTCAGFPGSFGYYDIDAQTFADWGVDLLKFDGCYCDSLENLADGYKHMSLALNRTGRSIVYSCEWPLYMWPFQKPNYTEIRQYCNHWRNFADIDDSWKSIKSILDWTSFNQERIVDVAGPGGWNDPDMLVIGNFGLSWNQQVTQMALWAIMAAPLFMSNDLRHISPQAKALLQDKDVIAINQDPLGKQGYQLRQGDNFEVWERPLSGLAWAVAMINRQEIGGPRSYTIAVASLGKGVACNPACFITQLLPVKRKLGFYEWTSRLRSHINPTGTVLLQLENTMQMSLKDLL
miR-21 FLuc: miR-21 reporter, rising signal; HeLa miR-21 FLuc reporter, luciferase, 48 h; 340,000 tested, under 10 active; Potency, µM (doses to about 38.3 µM), inactives show at the top dose reporter change, positive = more light; active = well fitted rising curve with a large enough effect; inconclusive = small, poorly fitted or top-dose-only effect; inactive = no such curve, though single readings can be large or run the other way;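 note: % of control where 0% means no effect; miR-21 action dims this reporter so a rising signal means less miR-21 action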
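Using DMEM plus 10% FBS, HeLa miR-21-FLuc cells are incubated with test compounds (final up to about 40uM) for 48 hours; firefly luciferase signal is then imaged following reagent-mediated lysis.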
Rango dissoc inh: inhibitors of RanGTP-induced Rango-importin beta complex dissociation. AID 540253. O95149+P62826. Potency, µM (series often up to 46.1 µM), for inactives: at the highest dose activity change, negative = inhibition. Biochemical FRET Rango-importin beta, RanGTP-induced dissociation. 0.071% of 340,000 active; active means falling FRET ratio curve, often poorly fitted, with flat reads before Ran was added; inconclusive means other falling curves, or compound fluorescence or quenching; inactive means flat or rising ratio curve;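 note: potency is the fitted concentration of half-maximal effect; % of control where 0% means no effect; nearly all actives have a fitted effect of over 45% in size; -100% = wells without RanGTP and RCC1; the record marks most hits as doubtful in a second field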
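Recombinant Rango FRET biosensor (EYFP–snurportin 1 IBB–cerulean CFP10) at 0.1 uM premixed with 0.25 uM importin beta in PBS, 1 mM DTT, 0.02% Tween-20, 0.1% BSA. Compound added 5 min; RanGTP-RCC1 (0.6 uM Ran, 2 mM GTP, 0.2 uM RCC1) then triggers release, read at 45 min.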
Rango-impB inh: inhibitors of Rango-importin beta complex formation; AID 540263; Potency, µM (doses to about 92.2 µM), without a hit: top-dose inhibition of complex formation; Rango CFP/YFP FRET sensor + importin beta, 45 min; 0.031% of 340,000 active; active = rising FRET ratio curve, often small or poorly fitted; inconclusive = mostly compound fluorescence or quenching in the first reads; inactive = flat curves in all reads;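 note: potency is the fitted concentration of half-maximal effect; 0% = DMSO wells and 100% = buffer wells lacking importin beta; nearly all actives have a fitted effect of over 15% in size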
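FRET biosensor (snurportin 1 IBB flanked by EYFP and cerulean), 50 nM, with compound 5 min, then 0.125 microM importin beta in PBS, 1 mM DTT, 0.02% Tween-20, 0.1% BSA. CFP/YFP ratio read after 45 min at room temperature; pre-read flags interference.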
Active calls of the source: *; ? = inconclusive; / = no result given; & = joins results of further samples.

canonical_smiles,GLA inh pH 4.5,miR-21 FLuc,Rango dissoc inh,Rango-impB inh
Cc1ccc(C(=O)OCCN(C)Cc2ccccc2)cc1,-4,-3%,16%,?
COc1ccc(CN2CCN(C(=O)c3ccc(S(=O)(=O)N4CCCCCC4)cc3)CC2)cc1,/,/,-14%,-6.3%
CCSc1nnc(NC(=O)c2cccc(S(=O)(=O)N(C)c3ccc(C)cc3)c2)s1,-3,1%,-8%,-3.8%
CSc1nnc(Cc2ccc3c(c2)OCO3)o1,-7,-16%,-2%,-1.7%
O=C(CCc1nc2ccccc2c(=O)[nH]1)NCCN1C(=O)S/C(=C\c2ccccc2Cl)C1=O,/,/,-3%,-2.0%
CCN(CC)c1ccc(NC(=O)c2ccccc2F)cc1,-4,0%,0%,-9.8%
COc1cc(Br)c(-c2sc(Nc3ccccc3)n[n+]2-c2ccc(F)cc2)cc1OC,/,7%,0%,?
COc1cccc(-c2noc(C3CCCN(C(=O)c4ccc(F)cc4F)C3)n2)c1 (stereo unspecified),/,-9%,-20%,-4.5%
CN1C(=O)NC(NC(=O)c2ccco2)(C(F)(F)F)C1=O (stereo unspecified),0,2%,12%,1.2%
COCCn1c(SCc2nnc(-c3ccc(OC)c(OC)c3)o2)nnc1-c1ccncc1,-8,5%,-14%,-0.5%
CCCCCCCCN1[C@@H](CC(=O)O)c2cc(F)ccc2S1(=O)=O,/,/,1%,0.3%
CC(=O)Oc1ccc2c(c1)C(=O)c1ccccc1CO2,3,-26%,-1%,1.9%
COC(=O)C1=CO[C@@H](O[C@@H]2OC(CO)[C@@H](O)[C@@H](O)[C@@H]2O)C2C1CC[C@]2(C)O (stereo partly specified),/,/,-12%,-0.2%
Cc1ccc(F)cc1NC(=O)C1CCCN(c2ncccn2)C1 (stereo unspecified),-2,-3%,1%,-2.6%
CCN(CC(=O)Nc1c(F)cccc1F)C(=O)C1CC(=O)N(c2ccc3c(c2)OCCO3)C1 (stereo unspecified),/,/,-3%,1.8%
CC(=O)Nc1ccc(S(=O)(=O)Nc2ccc(=O)n(Cc3ccc(Cl)c(Cl)c3)c2)cc1,1,0%,-9%,?
CCCCC(=O)N(c1ccc(OCC)cc1)C1C=CS(=O)(=O)C1 (stereo unspecified),-9,1%,-9%,0.7%
C=CCN1c2ccccc2[C@]23C[C@@H](C(=O)OC)N(C(=O)c4cccs4)C2=NC(C(=O)OC)=C(C(=O)OC)[C@H]13,-6&-1,?,25%,-4.3%
CC(C)(C)C1c2[nH]c3ccccc3c2CCN1Cc1cccc(OCCO)c1 (stereo unspecified),4,-16%,-26%,-2.3%
CCOP(=O)(O)c1cccc(OCCOCCOc2cccc(P(=O)(O)OCC)c2)c1,-8,2%,-5%,-2.8%
CCCCn1c(SCC(=O)NCc2ccc3c(c2)OCO3)nnc1C(CC)N(C)C (stereo unspecified),/,/,5%,-2.0%
O=C(COC(=O)c1ccc(Br)cc1)NCC1CCCO1 (stereo unspecified),/,/,1%,-1.8%
COc1ccc(NC(=O)c2cc3c(CO)cnc(C)c3oc2=Nc2cc(OC)cc(OC)c2)cc1,/,2%,-2%,0.0%
CCCCC(O)(CCCC)C(=O)NN(C(=O)OCC)c1ccccc1,4,-3%,6%,-1.6%
CCNc1ccc(C(=O)OCC)cc1NC(=O)c1cccc(N(C)C)c1,5,8%,-14%,-0.2%
NC(=O)c1nsc(C(=O)N(c2ccc3c(c2)OCO3)C(C(=O)NCC2CCCO2)c2ccc(F)cc2)c1N (stereo unspecified),/,-19%,-11%,-6.7%
COc1cc2ccccc2cc1C(=O)N(CCN(C)C)c1nc2c(F)cccc2s1,/,-1%,1%,-3.2%
Cc1cc(C(=O)N/N=C/c2c(C)nn(-c3ccccc3)c2C)c(C)o1,-8,-60%,-5%,0.0%
O=C(/C(=C/c1cccnc1)n1ccnc1)c1ccc(Cl)cc1Cl,-1,6%,3%,-1.1%
CC(C)Cc1nc2ccccc2n1CCc1ccccc1,2,-2%,-9%,0.3%
OC(COc1ccc(F)cc1)CN1CCN(CC(O)COc2ccc(F)cc2)CC1 (stereo unspecified),/,-4%,-18%,-3.1%
O=C(NC(=S)Nc1cccc(C(F)(F)F)c1)c1csnn1,4,11%,-2%,-0.3%
Cc1cc(C(=O)OCC(N)=O)c(C)n1-c1ccccc1,-5,-42%,9%,4.2%
CC1=C(C#N)c2nc(N)c(C#N)c(C)c2/C1=C\c1ccc(-c2ccccc2C(=O)O)o1,-14,2%,-17%,?
Cc1c(C(=O)N2CCN(C(=O)c3ccco3)CC2)sc2nc(-c3ccc(F)cc3)cn12,-12,6%,1%,-1.1%
CN(C)CCNC(=O)/C(=C/c1ccc(-c2ccc(Cl)cc2)o1)NC(=O)c1ccccc1,-9,?,1%,1.5%
COc1cc(/C=N/OCC(=O)NC2CCCCC2)ccc1OCc1ccccc1,-5,-25%,1%,4.4%
CCN(CC)c1ccc(CNc2nc3ccccc3n2C)cc1,0,-23%,-19%,-0.1%
CSc1ccc(NC(N)=S)cc1,7,0%,-17%,1.3%
CCOC(=O)c1ccc(NC(=S)NNC(=O)C2(C)CC2(Cl)Cl)cc1 (stereo unspecified),4,-26%,10%,-0.2%
COC(=O)c1ccc(N2NC(=O)/C(=C/c3cc(OC)c(O)c(OC)c3)C2=O)cc1,/,5%,-15%,0.2%
O=C1NC(=S)S/C1=C\c1cc2ccccc2nc1N1CCCCC1,-14,-6%,0%,13%
CC1=C(C(=O)OCc2ccccc2)C(c2cccs2)N2C(=O)CCSC2=N1 (stereo unspecified),-1,0%,0%,4.7%
COC(=O)c1ccc(Nc2nc(N3CCOCC3)nc(N3CCOCC3)n2)cc1,/,-2%,4%,-0.1%
COc1cc([N+](=O)[O-])c2ncsc2c1,2,-15%,-11%,-5.2%
COc1ccc2c(-c3ccc(OCCN4CCOCC4)cc3)c(-c3ccccc3OC)sc2c1,/,/,0%,-1.8%
COc1ccc(/C=C(\NC(=O)c2cccs2)C(=O)Nc2ccc(C)cc2)cc1OC,1,-10%,-1%,-1.3%
O=C(N1CCCCCC1)N1CCN(S(=O)(=O)c2cccc([N+](=O)[O-])c2)CC1,/,/,9%,-6.4%
COC(=O)c1cc2sccc2n1CC(=O)Nc1cccc(SC)c1,4,3%,0%,1.0%
COC(=O)c1sccc1NC(=S)N1CCC(C)CC1,3,-4%,1%,1.9%

(more compounds)
canonical_smiles,GLA inh pH 4.5,miR-21 FLuc,Rango dissoc inh,Rango-impB inh
CCC(C)n1cnc2c(c1=O)c1nc3ccccc3nc1n2Cc1ccc(OC)cc1 (stereo unspecified),-10,-9%,-1%,-1.1%
CN1CCN(c2ccccc2NC(=O)c2cccc([N+](=O)[O-])c2)CC1,13,2%,1%,-0.6%
Cc1cc(N2CCC(C)CC2)n2nc(C)c(-c3ccccc3)c2n1,0,1%,3%,1.8%
COC(=O)c1ccc(N2CCN(S(=O)(=O)c3ccc4ccccc4c3)CC2)c([N+](=O)[O-])c1,-5,12%,1%,-0.6%
CC(C)(C)c1ccc(NC(=O)c2c(F)cccc2Cl)cc1,-26,-43%,-1%,0.3%
Cc1ccc(OCCn2cc(/C(N)=N/O)c3ccccc32)cc1C,-6,23%,9%,?
O=C(CN1CCN(c2nc(-c3ccccc3)cs2)CC1)NNC(=O)c1ccc(Br)cc1,-1,1%,5%,5.7%
O=C(c1cc(COc2cccc(C(F)(F)F)c2)on1)N1CCC(c2ccccc2)CC1,/,-4%,22%,-0.2%
CSc1ccc(CCNC(=O)CCc2nnc3ccc(N4CCCCC4)nn23)cc1,/,5%,-11%,1.0%
COC(=O)C(NC(=O)c1ccccc1)c1ccccc1 (stereo unspecified),6,-6%,-1%,-5.3%
Cc1cc(C)c2oc(-c3cccc(NC(=O)c4ccc(F)cc4)c3)nc2c1,12,0%,-11%,0.1%
O=C(OCC(=O)N(C1CCCCC1)C1CCCCC1)c1ccc(O)cc1,/,3%,9%,-2.7%
Cc1nc2ccc(C(=O)N3CCN(c4ccccn4)CC3)cc2s1,-3,-6%,-2%,0.9%
O=S(=O)(NC1=NCCCCC1)c1ccc(F)cc1F,/,/,2%,0.3%
CC1CC(C)CN(C(=O)C2CCN(S(=O)(=O)c3ccc4c(c3)CC(C)N4C(=O)C3CC3)CC2)C1 (stereo unspecified),/,-4%,14%,0.3%
O=C1CSC(c2ccccc2)N1c1ccc(F)cc1F (stereo unspecified),/,-3%,-5%,0.6%
Cc1cc(C)n2nc(-c3ccc(Br)cc3)cc2n1,/,-55%,8%,0.2%
COc1cc(C=O)ccc1OCCOCCOc1ccccc1Cl,3,-15%,10%,-0.3%
Cc1ccc(C)c(Nc2ncnc3nc[nH]c23)c1,-3,-7%,-9%,-0.1%
COC(=O)c1c(NC(=O)C(=O)N2CCOCC2)sc2c1CCC2,/,-5%,-3%,5.4%
Cc1onc(-c2ccccc2)c1-c1csc(N/N=C/c2ccccc2Cl)n1,-13,-2%,-11%,-0.7%
CCCCCn1c(N)c(-c2nc3ccccc3o2)c2c([N+](=O)[O-])nn(CC)c(=O)c21,5,-3%,-1%,-4.2%
Cc1nc(NCCOc2ccccc2)sc1C(=O)Nc1ccccc1,-9,-28%,-22%,-0.8%
COc1ccc(Cl)cc1N1C(=O)c2cccnc2C1=O,/,0%,-8%,0.5%
CC(=O)c1cccc(NC(=O)c2cc3nc(C)cc(C)n3n2)c1,-3,-39%,-2%,-3.6%
Cc1cccc(N2CCN(C(=O)c3cc4cc(F)ccc4[nH]3)CC2)c1C,/,-9%,1%,-0.9%
COc1cc(/C=N/NC(=O)C2(O)c3ccccc3-c3ccccc32)ccc1O,-10,-4%,-5%,3.8%
CCn1c(C)cc(O)cc1=O,-3,-1%,28%,-2.3%
Cc1nc(NC(=O)c2ccccc2)sc1-c1csc(Nc2ccc(F)cc2)n1,-4,13%,/,/
Cc1ccccc1Nc1nc(N)nc(CSc2nc3ccccc3c(=O)n2CCCO)n1,-5,-13%,-4%,-3.1%
Cc1ccccc1Nc1nc(N)nc(COC(=O)c2cccc(S(=O)(=O)N(C)c3ccccc3)c2)n1,-10,12%,-10%,-4.3%
Cc1ccc(Cl)cc1NC(=O)CCC(=O)NCc1ccco1,/,3%,-8%,0.9%
CCOc1cc(C(=O)Nc2cc(C(=O)OC)ccc2C)ccc1OCC(=O)N1CCOCC1,/,/,-4%,0.5%
CCCc1cc(SCC(=O)Nc2c(C)n(C)n(-c3ccccc3)c2=O)n2c(nc3ccccc32)c1C#N,-10,5%,?,?
O=C(CSCCO)N1CCc2ccccc21,-5,0%,1%,-1.4%
O=C(NCC1CCCN1S(=O)(=O)c1cccs1)C(=O)Nc1ccccc1 (stereo unspecified),/,/,6%,-4.7%
Cc1ccc(/C=C2\SC(=S)N(CCC(=O)NNC(=O)c3cccc(O)c3)C2=O)cc1,/,-9%,5%,-3.4%

Two neighbouring entries out of the list so far, for reference:
canonical_smiles,GLA inh pH 4.5,miR-21 FLuc,Rango dissoc inh,Rango-impB inh
CC(=O)Nc1ccc(S(=O)(=O)Nc2ccc(=O)n(Cc3ccc(Cl)c(Cl)c3)c2)cc1,1,0%,-9%,?
CCCCC(=O)N(c1ccc(OCC)cc1)C1C=CS(=O)(=O)C1 (stereo unspecified),-9,1%,-9%,0.7%

Bioassay records from PubChem BioAssay.

The list is partial; the hit share may differ from the screen's.
